CDC25B CDK2 inh – human CDC25B-CDK2/CyclinA binding inhibition | HTRF CDC25B-CDK2/CyclinA binding, anti-His/anti-Flag; active compounds read high | 94,000 compounds, 0.72% hits | P30305+P24941 | AID 1259370 | z-score (concentration not given with the values);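 further: score is relative to mean and SD of negative controls; strong numbers were not always called active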
HIV TAR-Tat – HIV-1 TAR-Tat binding disruption | z-score (no concentration beside the values) | 100,000 compounds, 0.6% hits | HIV-1 TAR RNA, Tat peptide displacement FRET; active compounds read high;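 further: score is relative to mean and SD of negative controls; some compounds called inactive have numbers as strong as hits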
Active calls of the source: *.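 How the source made its calls: active means z-score from 3 up in half or more of its runs; inactive means the rest.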 Random draw from the library; about 0.87% have a hit in one of these screens.

Start of the data: the first 2 entries as a preview:
Screening CN1CCc2c(sc(-n3cccc3)c2CNC(=O)NC2CCCCC2)C1 returned CDC25B CDK2 inh 5.6 and HIV TAR-Tat -4.5.
`Cc1cc(C)nc(NS(=O)(=O)c2ccc(NC(=O)c3ccco3)cc2)n1` gave CDC25B CDK2 inh -2.4.

The list itself, previewed entries included:
Screening CN1CCc2c(sc(-n3cccc3)c2CNC(=O)NC2CCCCC2)C1 returned CDC25B CDK2 inh 5.6 and HIV TAR-Tat -4.5.
`Cc1cc(C)nc(NS(=O)(=O)c2ccc(NC(=O)c3ccco3)cc2)n1` gave CDC25B CDK2 inh -2.4.
`O=C1C=C(CCCCCCC2=CC(=O)C(Br)=CC2=O)C(=O)C=C1Br` gave CDC25B CDK2 inh 0.36.
COc1ccc(NS(=O)(=O)c2cc3c(cc2C)N(C)CCO3)c(OC)c1 was read as HIV TAR-Tat 2.8.
For Cc1ccc(S(=O)(=O)N2CCC(c3nnc(-c4cccc(C)c4)o3)CC2)cc1 the results were CDC25B CDK2 inh -2.1 and HIV TAR-Tat 2.
For CC(C)Nc1nc(N2CCCCC2)nc2c1cnn2C the results were HIV TAR-Tat 0.93.
For CCOc1ccc2nc(Nc3nccc(C)n3)nc(C)c2c1 the results were CDC25B CDK2 inh 0.29 and HIV TAR-Tat 1.8.
`COc1ccc(OC)c(-n2nnc(-c3nc(-c4ccc(F)cc4)no3)c2N)c1` gave HIV TAR-Tat 0.52.
For CCOc1ccc2nc(-n3nc(C)c4c3NC(=O)CC4c3ccsc3)sc2c1 (stereo not drawn) the results were HIV TAR-Tat 0.81.
For COC(=O)C1CCCN(S(=O)(=O)c2c(C)nn(C)c2C)C1 (stereo not drawn) the results were HIV TAR-Tat 1.7.
Cc1cc(=O)n(C)c(=O)n1-c1ccccc1 was read as CDC25B CDK2 inh 0.11 and HIV TAR-Tat 2.3.
`COC(=O)c1ccc(C2C(C(=O)OCCOC(C)C)=C(C)NC3=C2C(=O)CC(C)(C)C3)cc1` (stereo not drawn) gave CDC25B CDK2 inh 0.38 and HIV TAR-Tat 1.
Screening COc1cnc(CSc2ccccc2)cc1OCC(=O)N1CCCc2ccccc21 returned HIV TAR-Tat 0.69.
`C=CCOC(=O)C1C(c2cccc(OC)c2)c2c([nH][nH]c2=O)CC1(C)O` (stereo not drawn) gave CDC25B CDK2 inh 1.5 and HIV TAR-Tat 1.3.
`Cc1cc(C)nc(SCC(=O)Nc2ccc(Br)cc2)n1` gave CDC25B CDK2 inh 0.4 and HIV TAR-Tat -1.6.
`O=C1Nc2cc(C(=O)N3CCCC3)ccc2NC1CS(=O)(=O)Cc1ccc(F)cc1Cl` (stereo not drawn) gave HIV TAR-Tat 0.41.
For CN1CCN(c2ncnc3onc(-c4cc(F)cc(F)c4)c23)CC1 the results were HIV TAR-Tat 0.79.
Screening CCOC(=O)c1cccc(C(=O)Nc2cccc(F)c2)n1 returned CDC25B CDK2 inh -1.1.
For COc1ccc(N(C(=O)c2ccco2)S(=O)(=O)c2ccc3c(c2)n(C)c(=O)n3C)cc1 the results were CDC25B CDK2 inh -1.3 and HIV TAR-Tat -0.12.
`O=C1c2cccnc2C(=O)N1Cc1ccc(S(=O)(=O)NCc2ccccc2)s1` gave HIV TAR-Tat -0.34.

Arranged by count of non-hydrogen atoms (high to low): part of the list above
For COc1ccc(N(C(=O)c2ccco2)S(=O)(=O)c2ccc3c(c2)n(C)c(=O)n3C)cc1 the results were CDC25B CDK2 inh -1.3 and HIV TAR-Tat -0.12.
Screening COc1cnc(CSc2ccccc2)cc1OCC(=O)N1CCCc2ccccc21 returned HIV TAR-Tat 0.69.
For CN1CCN(c2ncnc3onc(-c4cc(F)cc(F)c4)c23)CC1 the results were HIV TAR-Tat 0.79.
`Cc1cc(C)nc(SCC(=O)Nc2ccc(Br)cc2)n1` gave CDC25B CDK2 inh 0.4 and HIV TAR-Tat -1.6.
Cc1cc(=O)n(C)c(=O)n1-c1ccccc1 was read as CDC25B CDK2 inh 0.11 and HIV TAR-Tat 2.3.

Remaining list, next part
COc1ccc2c(=O)c(Oc3ccccc3Br)c(C(F)(F)F)oc2c1 was read as CDC25B CDK2 inh -1.4 and HIV TAR-Tat 0.66.
Screening O=C(Cn1c2ncccc2c(=O)n1-c1ccccc1)Nc1ccc(F)cc1 returned HIV TAR-Tat 0.75.
COc1ccc(-c2nc(CSc3nc4ncccc4[nH]3)c(C)o2)cc1OC was read as HIV TAR-Tat 0.18.
Screening O=C1Nc2cc(C(=O)N3CCCC3)ccc2N2CCCCC12 (stereo not drawn) returned HIV TAR-Tat 1.3.
Screening Cc1cn(CCC(=O)O)c2ccccc12 returned CDC25B CDK2 inh -1.3.
For O=C(NCc1cccs1)c1cc(S(=O)(=O)N2CCCCC2)c[nH]1 the results were HIV TAR-Tat 2.
NC(=O)c1sc(-c2ccc(Cl)cc2)cc1N1C(=O)c2cccc3cc([N+](=O)[O-])cc(c23)C1=O was read as CDC25B CDK2 inh -2.1.
For CCOc1cc(C2C(C#N)=C(N)Oc3c2ccc2ccccc32)ccc1O (stereo not drawn) the results were CDC25B CDK2 inh 1 and HIV TAR-Tat -2.9.
CC(C)(O)C#Cc1ccc(C2NCCS2)cc1 (stereo not drawn) was read as CDC25B CDK2 inh -1.1 and HIV TAR-Tat -0.32.
CCc1nnc2c(NCc3ccccc3Cl)nc3ccccc3n12 was read as CDC25B CDK2 inh -0.84 and HIV TAR-Tat 2.4.
Screening CCOc1ccc2c(c1)NC(c1ccncc1)=NC(c1ccc(F)cc1)=N2 returned CDC25B CDK2 inh -1.3 and HIV TAR-Tat 0.3.
For Cc1cccc(NC(=O)Cn2c(=O)oc3cc(S(=O)(=O)N4CCCC4)ccc32)n1 the results were CDC25B CDK2 inh 0.14 and HIV TAR-Tat 1.1.
Screening CC(C)CNC(=O)C(=O)NCC(c1ccco1)S(=O)(=O)c1cccs1 (stereo not drawn) returned HIV TAR-Tat 1.7.
`Cc1nnc2sc(SCC(=O)N3CCCC3)nn2c1=O` gave HIV TAR-Tat 2.3.
`Cn1c(=O)c2c(-c3ccc(Cl)cc3)n(CCO)cc2n(C)c1=O` gave CDC25B CDK2 inh -2.4 and HIV TAR-Tat 1.9.
For C=CCN(CC=C)Cc1c(C)[nH]c2ccc(Br)cc2c1=O the results were CDC25B CDK2 inh -2 and HIV TAR-Tat -0.24.
For CCOC(=O)C(C)CS(=O)OCC (stereo not drawn) the results were CDC25B CDK2 inh 0.02.
C#CC(CN1CCCCC1)N1CCCCC1 (stereo not drawn) was read as CDC25B CDK2 inh 0.26 and HIV TAR-Tat 0.47.
For Cc1cccc(N2CCN(Cc3csc(C)c3C)CC2)c1C the results were HIV TAR-Tat 1.7.
N#CC1(C#N)C(c2ccc(Cl)c(Cl)c2)C1(C#N)C#N was read as CDC25B CDK2 inh 0.69.

No new results follow: entries from further up.
Screening CC(C)CNC(=O)C(=O)NCC(c1ccco1)S(=O)(=O)c1cccs1 (stereo not drawn) returned HIV TAR-Tat 1.7.
`Cc1nnc2sc(SCC(=O)N3CCCC3)nn2c1=O` gave HIV TAR-Tat 2.3.
`Cn1c(=O)c2c(-c3ccc(Cl)cc3)n(CCO)cc2n(C)c1=O` gave CDC25B CDK2 inh -2.4 and HIV TAR-Tat 1.9.

Later entries
`Cc1nc2nc(C)c([N+](=O)[O-])c(=O)n2[nH]1` gave CDC25B CDK2 inh 0.23 and HIV TAR-Tat 1.1.
Screening Cc1ccc(OCC(O)Cn2c(C)nc3ccccc32)cc1 (stereo not drawn) returned CDC25B CDK2 inh -1.2 and HIV TAR-Tat 0.6.
`O=c1ccc(-c2ccc(S(=O)(=O)N3CCN(CCOc4ccc(Cl)cc4)CC3)s2)n[nH]1` gave HIV TAR-Tat 0.54.
Clc1ccccc1-n1cc(-c2ccccc2)c2c(N3CCCC3)ncnc21 was read as CDC25B CDK2 inh -2 and HIV TAR-Tat 0.42.
Screening Cc1cc(NC(=O)C(Sc2nnc(N)s2)c2ccccc2)no1 (stereo not drawn) returned CDC25B CDK2 inh 0.73 and HIV TAR-Tat 0.31.
Cc1ccc(C)c(CCCC(=O)O)c1 was read as CDC25B CDK2 inh -0.68 and HIV TAR-Tat 1.7.
For CCC(C)[C@@H](C(=O)Nc1ccc2c(c1)OCO2)N1Cc2ccccc2C1=O (stereo partly drawn) the results were CDC25B CDK2 inh -1.5 and HIV TAR-Tat -0.61.
`O=C(COCc1cc(-c2ccc3c(c2)OCO3)on1)Nc1ccc2c(c1)OCO2` gave HIV TAR-Tat -2.4.
CCOC(=O)C(/C(=N\B(c1ccccc1)c1ccccc1)C(F)(F)F)=C(\C)NCC(C)C was read as CDC25B CDK2 inh -2.
O=C(Nc1nc2nc(-c3ccccc3)cc(=O)n2[nH]1)c1ccco1 was read as CDC25B CDK2 inh -2.2 and HIV TAR-Tat -0.5.
Screening Cc1cccnc1-n1c(C)c(C)c2c1ncn1nc(CSc3nc4ccccc4s3)nc21 returned CDC25B CDK2 inh -0.66 and HIV TAR-Tat 1.8.
For CCOC(=O)Cc1nc(OCC(=O)c2ccc(F)cc2)cs1 the results were CDC25B CDK2 inh -0.85 and HIV TAR-Tat -5.2.
For COc1c(O)c2c(=O)cc(OC)c3c4c(OC)cc(=O)c5c(O)c(OC)c6c(c(c1C[C@@](C)(O)[C@H]6C(C)=O)c23)c54 the results were HIV TAR-Tat -8.3.
`Cc1nc2sc(C(c3cccs3)N3CC(C)CC(C)C3)c(O)n2n1` (stereo not drawn) gave CDC25B CDK2 inh -1.1.
For CCCS(=O)(=O)N1CCN(C(=O)c2ccco2)CC1 the results were CDC25B CDK2 inh -1.6 and HIV TAR-Tat 1.9.
CC1CCN(S(=O)(=O)c2ccc3nc(N4CCc5ccccc54)ccc3c2)CC1 was read as HIV TAR-Tat 1.8.
`CCc1nonc1NC(=O)c1sc2cc(C)ccc2c1Cl` gave CDC25B CDK2 inh -1.9 and HIV TAR-Tat 1.4.
`CC1CCCCN1CCNC(=O)CN1C(=O)CSc2ccc(S(=O)(=O)N3CCCCC3)cc21` (stereo not drawn) gave HIV TAR-Tat 0.68.
Screening CCn1c(C(=O)N2CCC(C(=O)NCCc3c[nH]c4ccccc34)CC2)cc2sccc21 returned CDC25B CDK2 inh -1.5.
`CCc1nnc(NS(=O)(=O)c2ccc(N/C=C\C(=O)c3ccc(Br)cc3)cc2)s1` gave CDC25B CDK2 inh -2.
Screening CN1C(=O)c2cc(NC(=O)c3cc(-c4ccncc4)nc4ccccc34)ccc2N2CCN=C12 returned HIV TAR-Tat 0.26.
`COc1ccccc1Nc1nc2ccccc2c2nncn12` gave CDC25B CDK2 inh -0.39 and HIV TAR-Tat 0.76.
For O=C1c2ccccc2-c2onc3c(N4CCOCC4)cc(NCc4ccco4)c1c23 the results were CDC25B CDK2 inh 2.8 and HIV TAR-Tat -5.5.
CCOC(=O)c1c(C)[nH]c(C)c1S(=O)(=O)Nc1ccc(OC)cc1OC was read as HIV TAR-Tat 0.97.
For CCn1/c(=C\C=[N+](C)C)c2cccc3cccc1c32 the results were CDC25B CDK2 inh -1.6 and HIV TAR-Tat -14.
`CC(CN(C)C)CN1c2ccccc2CCc2ccccc21` (stereo not drawn) gave CDC25B CDK2 inh -1.1 and HIV TAR-Tat -0.63.
Screening COc1cc(OC)cc(-c2nc(-c3ccc(C)nc3OC)no2)c1 returned CDC25B CDK2 inh -0.37 and HIV TAR-Tat -0.89.
Screening Cc1cc(C)nc(N2CCN(c3ncnc4sc5c(c34)CC(C)CC5)CC2)n1 (stereo not drawn) returned CDC25B CDK2 inh -0.69.
`Cc1cc(-c2ccc(=O)[nH]n2)cc(S(=O)(=O)N2CCC(C)CC2)c1C` gave HIV TAR-Tat 2.1.
`Cc1cc2c(c(=O)n1Cc1ccc3c(c1)OCO3)C(c1cccs1)C(C#N)=C(N)O2` (stereo not drawn) gave CDC25B CDK2 inh -0.25.
For CCCC(=O)Nc1nc2cc(NS(=O)(=O)CC)ccc2s1 the results were HIV TAR-Tat 1.4.
Screening COc1cccc(Nc2ncc(C#N)c(N)n2)c1 returned CDC25B CDK2 inh -0.15.
`CCS(=O)(=O)Nc1ccc(CCc2nc3ccccc3n2-c2ccccc2)cc1` gave HIV TAR-Tat 0.05.
Screening O=C(O)C1C2C=CC(C2)C1C(=O)N1CCN(C(c2ccccc2)c2ccccc2)CC1 (stereo not drawn) returned CDC25B CDK2 inh 0.31 and HIV TAR-Tat 0.93.
For Cc1c(C(=O)N2CCCC(C)C2)sc2nc3n(c(=O)c12)CCCCC3 (stereo not drawn) the results were HIV TAR-Tat 1.6.
Screening O=S(=O)(c1cccc2nsnc12)N1CCCC1c1ccccc1Cl (stereo not drawn) returned CDC25B CDK2 inh -0.83 and HIV TAR-Tat 0.03.
CCOc1cc(C2C(C(=O)OCCSCC)=C(C)NC3=C2C(=O)CCC3)ccc1O (stereo not drawn) was read as CDC25B CDK2 inh -3 and HIV TAR-Tat 1.
`O=C(Nc1ncc(Cc2cc(Cl)ccc2Cl)s1)c1cccs1` gave CDC25B CDK2 inh -0.3.
`CCCNC(=O)c1cnc2sc3c(n2c1=O)CCCC3` gave HIV TAR-Tat 0.54.
Screening Cc1cc(=O)[nH]c(Nc2nc(C)c3cccc(C)c3n2)n1 returned CDC25B CDK2 inh 2.3 and HIV TAR-Tat 1.4.
Screening CCCNc1nc2ccccc2n2c(C)nnc12 returned CDC25B CDK2 inh 1.2 and HIV TAR-Tat -0.24.
Cc1ccc2c(C)c(C(=O)Nc3nc4c(s3)CC(C)CC4)oc2c1 (stereo not drawn) was read as CDC25B CDK2 inh -2.6 and HIV TAR-Tat 2.4.
`O=C1c2ccccc2C(=O)N1SSN1C(=O)c2ccccc2C1=O` gave CDC25B CDK2 inh -0.74.
For COc1cccc(Cn2c(SCc3ccccc3F)nc3cccnc32)c1 the results were HIV TAR-Tat 0.62.
`N#Cc1ccc(-c2c(C#N)c(N)n(N)c(=O)c2C#N)cc1` gave CDC25B CDK2 inh -0.88.
Screening Cc1cc(C)cc(NC(=O)c2sc3nc4n(c(=O)c3c2C)CCC4)c1 returned HIV TAR-Tat 2.
For O=C(CN(C1=NC2CS(=O)(=O)CC2S1)c1ccc(Cl)cc1)NCC1CCCO1 (stereo not drawn) the results were CDC25B CDK2 inh 1.2 and HIV TAR-Tat 1.8.

Assay outcomes (PubChem BioAssay)
